Bfl-1 A1 inh = inhibitors of the anti-apoptotic protein A1, read as caspase activation | MEF A1-2A-BIM cells, Caspase-Glo 3/7 luminescence, 3 h; percent of clofoctol response, vehicle zero | caspase activation, % (test concentration not listed) | 330,000 compounds, 0.066% hits | AID 2462;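 active = over half of replicate activation scores above 10%, or exactly half above 10 with the replicate mean above 10; inconclusive = replicate mean below 10 yet half the replicates above 10; inactive = over half of replicates below 10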;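 note: wells of about 30 µL received 50 nL stock; many hits fall short of the cut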
T cruzi repl = blocks replication of Trypanosoma cruzi; inhibition, % (concentration not given with the values); 300,000 compounds, 1.4% hits; AID 1885; T. cruzi beta-gal in NIH3T3, luminescence, 90 h;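 active = mean inhibition across valid replicates above about 55%, limit read from the data; inconclusive = mean below that limit but half or more replicates reach it; inactive = mean below it, under half of replicates reach it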;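 note: signal also drops with host cell toxicity which is not excluded here; 0% = plate median of DMSO wells and 100% = zero luminescence signal; higher percent means less beta-gal luminescence so fewer parasites; stock transfer was 50 nL into about 50 µL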
Ecoli rRNA inh = inhibits bacterial ribosomal RNA function over humanized ribosomes; E. coli WT GFP vs humanized-ribosome RFP mutants, fluorescence, 24 h; hits give low values; DMSO median 0, no signal -100; GFP signal change (wild-type ribosome), % (concentration not given with the values); 350,000 compounds, 1.6% hits; AID 720706;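 active = significant combined selectivity score with lowered wild-type GFP, culture density cut under 30%, mutant RFP and density less affected; inactive = any of these conditions unmet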; note: one replicate is shown; some compounds called inactive have numbers as strong as hits
Beta2AR agonist = human beta-2 adrenergic receptor agonism by FAP | P07550 | Am2.2-beta2AR cells, FAP receptor internalization, flow cytometry; reference of the scale not given here | response, % (test concentration not listed) | 340,000 compounds, 0.43% hits;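 active = response above a set limit, near 3 SD of response in nonfluorescent compounds, cut at about 42% in these data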;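 note: stock transfer was 100 nL into about 11 µL; a reference agonist was the positive control; negative values mostly stem from fluorescent compounds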
Beta apoptosis = blocks beta cell apoptosis; INS-1E cytokine-induced death, ATP luminescence, 48 h; percent of positive-control rescue, neutral wells zero; 300,000 compounds, 0.8% hits; protection from apoptosis, % (concentration not given with the values);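 active = all replicates at 75% or more, or half of them and the mean; inconclusive = half reach 75% but not the mean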;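 note: 0% = cytokine-treated negative control wells and 100% = positive control rescue; higher means more ATP so stronger rescue from cytokine killing; wells of about 40 µL received 100 nL stock; the first replicate is given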
ALR H2O2 inh = blocks human ALR sulfhydryl oxidase activity | P55789 | purified ALR, DTT oxidation, H2O2 HRP-luminol luminescence | inhibition, % (no concentration beside the values) | 290,000 compounds, 3.8% hits;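 active = mean and each replicate at 75% or more; inconclusive = only one of the two met; inactive = neither met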;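 note: stock transfer was 7.5 nL into about 7.5 µL; 0% = neutral wells and 100% = wells with inactivated enzyme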
Calb FLC = C. albicans growth modulation with fluconazole | C. albicans CaCi-2 (fluconazole-resistant clinical isolate) + fluconazole, Alamar Blue growth, 48 h | growth inhibition, % (concentration not given with the values) | 300,000 compounds, 0.57% hits;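 active = most replicates above 75%; inconclusive = exactly half above 75%; inactive = most below 75%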;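 note: all wells also contain fluconazole at 8 µg/ml as a sub-toxic cotreatment; 0% = median of DMSO wells and 100% = median of geldanamycin control wells; wells of about 8 µL received 7.5 nL stock; the first replicate is given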
LANA-H2A inh = blocks KSHV LANA binding to histone H2A/H2B. cell-free LANA-H2A/H2B peptide, fluorescence polarization. inhibition, % (no concentration beside the values). 320,000 compounds, 0.6% hits; in the data active = inhibition mostly above about 10%, no sharp cut-off; inactive = mostly below about 6.7%;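 note: stock transfer was 7.5 nL into about 10 µL; 0% = median of vehicle wells and 100% = median of positive control wells; one replicate is shown; the record names a cut of 25% in any replicate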
Target sequence (Q9QR71 whole entry, looked up): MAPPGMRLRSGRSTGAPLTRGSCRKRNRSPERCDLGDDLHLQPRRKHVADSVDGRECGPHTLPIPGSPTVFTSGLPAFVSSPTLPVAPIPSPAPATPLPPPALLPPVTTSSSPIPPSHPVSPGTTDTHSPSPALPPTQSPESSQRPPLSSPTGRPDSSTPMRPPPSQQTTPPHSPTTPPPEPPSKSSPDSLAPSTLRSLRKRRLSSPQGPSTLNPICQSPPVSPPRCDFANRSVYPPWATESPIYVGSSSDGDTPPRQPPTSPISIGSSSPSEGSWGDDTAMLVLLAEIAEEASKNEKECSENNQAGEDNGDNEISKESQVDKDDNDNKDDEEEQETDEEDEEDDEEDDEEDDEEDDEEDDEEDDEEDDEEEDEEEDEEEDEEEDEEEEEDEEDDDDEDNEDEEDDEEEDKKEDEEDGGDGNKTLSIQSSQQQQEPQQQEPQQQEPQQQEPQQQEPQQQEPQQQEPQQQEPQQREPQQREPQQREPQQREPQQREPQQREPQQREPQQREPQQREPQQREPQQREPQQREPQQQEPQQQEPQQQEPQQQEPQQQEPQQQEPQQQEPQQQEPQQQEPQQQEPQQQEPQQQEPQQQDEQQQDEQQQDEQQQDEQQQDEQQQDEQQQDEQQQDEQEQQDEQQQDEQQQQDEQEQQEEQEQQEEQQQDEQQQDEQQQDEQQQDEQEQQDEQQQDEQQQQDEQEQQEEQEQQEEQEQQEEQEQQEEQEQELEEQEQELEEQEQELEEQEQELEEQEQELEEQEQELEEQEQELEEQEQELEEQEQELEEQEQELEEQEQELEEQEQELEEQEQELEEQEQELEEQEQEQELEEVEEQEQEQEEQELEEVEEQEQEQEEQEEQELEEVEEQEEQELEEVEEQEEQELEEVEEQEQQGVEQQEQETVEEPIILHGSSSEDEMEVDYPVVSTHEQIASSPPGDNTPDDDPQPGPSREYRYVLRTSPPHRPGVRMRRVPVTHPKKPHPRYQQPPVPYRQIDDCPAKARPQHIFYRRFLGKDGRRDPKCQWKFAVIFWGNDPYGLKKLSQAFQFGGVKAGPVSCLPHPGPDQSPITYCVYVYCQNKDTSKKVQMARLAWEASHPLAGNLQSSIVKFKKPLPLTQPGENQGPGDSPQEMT
Ecoli rRNA inh OD600 = second read-out of Ecoli rRNA inh, no call of its own (marks repeat the call); OD600 change, %; measured here: OD600 growth;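 optical density of the mix in the first replicate; 0 = DMSO median and -100 = no signal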
Ecoli rRNA inh RFP = recorded beside Ecoli rRNA inh, whose call it bears; RFP signal change, %; measured here: RFP humanized mutant strains;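 first replicate; 0 = DMSO median and -100 = no signal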
* marks the source's active call; other numbers are inactive results; ? = inconclusive; / = no result given. Not all compounds are listed (hit frequency here may not be typical).

entry	SMILES	Bfl-1 A1 inh	T cruzi repl	Ecoli rRNA inh	Ecoli rRNA inh OD600	Ecoli rRNA inh RFP	Beta2AR agonist	Beta apoptosis	ALR H2O2 inh	Calb FLC	LANA-H2A inh
1	Cc1ccccc1SCCNC(=O)c1ccccc1Br	0.4	-9	-3	-11	-1.6	3	5	-2	2	2.8
2	Cc1ccc(C(=O)COC(=O)CNC(=O)c2ccco2)cc1	0.2	-3	/	/	/	-2	-5	-2	-7	2.5
3	COc1cc(CN2CCCCCC2)c([N+](=O)[O-])cc1OC	1.4	8	22	18	3.6	1	-6	-19	-2	5.4
4	Cc1ccc(Cn2c(C3CCCN3c3nc(C)cs3)nc3cc(C(F)(F)F)ccc32)cc1 (configuration not stated)	0.8	3	/	/	/	7	5	-1	15	-1.8
5	CCCOc1ccc(NC(=O)C2CCCNC2=O)cc1 (configuration not stated)	-0.4	-18	/	/	/	8	-5	-13	5	-4.2
6	CN(C)S(=O)(=O)c1cccc(NC(=O)CCCc2nc3ccccc3c(=O)[nH]2)c1	1.3	8	3	7	-0.1	3	-3	/	5	/
7	Cc1cc(C)cc(-n2c(C)cc(/C=N/NC(=O)CN(c3c(C)cccc3C)S(C)(=O)=O)c2C)c1	0.7	16	/	/	/	0	0	/	6	/
8	COCCn1c(SCc2ccc(F)cc2)nc2c1c(=O)[nH]c(=O)n2C	0.7	3	-3	6	-1.9	0	2	50	-6	-0.3
9	CCOC(=O)c1c(NC(=O)CC(C)C)sc(C(C)=O)c1C	0.0	17	/	/	/	-21	/	/	-2	-2.1
10	Cc1cc(C)c2c3c(sc2n1)C(=O)N(C)CC(=O)N3	0.9	-21	/	/	/	-2	-2	0	-36	-1.9
11	CN1CCN(S(=O)(=O)c2cccc(C(=O)N(Cc3nnc(-c4ccccc4Cl)o3)C3CC3)c2)CC1	0.1	7	3	1	-1.0	-3	0	-1	-2	0.5
12	Cc1c(C=Nc2ccc(S(=O)(=O)N(C)C)cc2)c(O)[nH]c(=O)c1C#N	-3.8	10	/	/	/	11	-1	-8	-4	-1.5
13	CCCCNC(=O)C1CCN(S(=O)(=O)c2ccc3c(c2)CC(C)N3C(=O)C2CC2)CC1 (configuration not stated)	0.9	0	5	11	13	-16	1	-2	-3	-0.3
14	COc1ccccc1C(=O)NC(CCSC)C(=O)NCC(c1cccs1)N1CCOCC1 (configuration not stated)	-0.4	7	-4	-1	-0.3	-1	-3	-3	1	1.5
15	CCOC(=O)CSc1nc(=O)n2cccc(C)c2n1	1.6	-26	15	9	3.0	1	0	-4	-9	-2.5
16	COc1cc(OC)c(S(=O)(=O)Nc2ccccc2N2CCOCC2)cc1NC(C)=O	-1.2	-1	6	4	-9.0	-1	-16	5	10	-0.2
17	O=C(COc1ncnc2c(Cl)cc(Cl)cc12)Nc1cc([N+](=O)[O-])ccc1Cl	-0.4	22	/	/	/	3	2	/	10	-0.1
18	COc1cc(C#Cc2c(-c3cncn3C)n(C)c3ccc(-c4ccc(OC)c(OC)c4)cc23)cc(OC)c1	0.3	/	/	/	/	-5	13	-6	/	-4.9
19	Cc1ccccc1OCCCCCCN1CCNCC1	0.1	20	/	/	/	13	1	0	-2	6.5
20	CC(NC(=O)c1cccc(OC2CCN(C3CCN(C)CC3)CC2)c1)c1ccccc1 (configuration not stated)	3.5	26	8	15	-0.1	1	-1	-3	-5	0.1
21	Nn1c(SCC(=O)NCCc2ccc(S(N)(=O)=O)cc2)nnc1C1CCCCC1	-0.5	/	11	12	-0.3	-6	7	46	/	4.4
22	O=C(CSc1nnc(-c2ccc(O)cc2)n1Cc1ccco1)N1CCc2ccccc2C1	-0.4	5	/	/	/	-1	-2	-2	6	-3.0
23	O=C1NC(Cc2ccc(O)cc2)c2nc3cc(F)ccc3c(=O)n2-c2cc(Cl)ccc21 (configuration not stated)	-0.5	/	-7	-12	-8.9	/	-1	1	/	1.1
24	O=C(NCCCN1CCN(Cc2ccccc2)CC1)C1CCN(S(=O)(=O)N2CCCC2)CC1	0.1	-7	9	4	-6.9	13	1	-5	-6	-4.8
25	COc1ccccc1C(=O)NCCC(=O)NCC1CCCO1 (configuration not stated)	-1.0	/	12	13	-2.7	6	-6	-12	/	5.9
26	CC(C)NC(=O)c1ccc2c(=O)n(Cc3ccco3)c(=S)[nH]c2c1	0.9	-18	/	/	/	2	-4	/	-7	-4.2
27	CN(C)S(=O)(=O)c1cccc(-n2sc3ccccc3c2=O)c1	-1.7	/	-4	-2	1.4	2	2	/	/	-2.8
28	CC(=O)Nc1ccc(N=NC2C(=O)N(C(N)=S)N=C2C)cc1 (configuration not stated)	-7.7	-15	-14	-14	-2.3	16	0	-1	12	1.1
29	O=C(O)c1cccc(-c2nc3ccccc3[nH]2)c1	-14	-24	17	6	2.5	1	0	/	-7	-3.7
30	COc1cccc2c(=O)c(C(=O)NCc3cccs3)c[nH]c12	1.4	9	/	/	/	-2	4	-6	?	-1.3
31	CCCNC(=O)CCn1nc(-c2ccc(Cl)cc2)c2ccccc2c1=O	-0.2	-3	10	16	0.9	-9	0	-5	-1	-17
32	CCc1cccc(NS(=O)(=O)c2c(C)nc3scc(C)n3c2=O)c1	-0.5	4	-2	-3	1.2	10	-2	/	2	5.6
33	COc1ccc(-n2cnnc2SCC(=O)Nc2ccc(N3CCOCC3)cc2)cc1	0.0	-13	/	/	/	-4	-2	28	1	-2.1
34	Cc1ccc(Nc2cnn(C34CC5CC(CC(CC(=O)O)(C5)C3)C4)c(=O)c2Cl)cc1	-0.9	-15	-7	-6	-7.3	2	-11	2	-2	-2.3
35	Nc1ccc(CCC(=O)N2CCCC2)cc1	0.6	2	14	18	1.8	11	/	13	1	-5.9
36	CCOC(CNc1cc(C)nc2c(-c3ccccc3OC)c(C)nn12)OCC	1.5	-2	1	-2	0.5	2	2	/	-13	-3.7
37	CCN1CCc2c(sc(NC(=O)c3ccc(S(=O)(=O)N(CC)c4ccccc4)cc3)c2C(N)=O)C1	-0.1	18	/	/	/	-210	-4	-5	-11	3.1
38	CCOC(=O)Cc1csc(CC(N)=O)n1	-0.1	-11	5	5	0.1	4	-11	-8	-15	0.9
39	CC12CCC(C(=O)N3CCCCCC3)(OC1=O)C2(C)C (configuration not stated)	-0.6	-12	/	/	/	1	-13	-6	-11	0.0
40	CCN(CC)CCCN(C(=O)c1cccc(C)c1)c1nc(-c2ccc(OC)cc2)cs1	1.3	18	-46	-78	-9.6	12	/	96*	-1	3.6

In a second layout: entries from further up
#25 COc1ccccc1C(=O)NCCC(=O)NCC1CCCO1 (configuration not stated)
#26 CC(C)NC(=O)c1ccc2c(=O)n(Cc3ccco3)c(=S)[nH]c2c1

| assay / compound | 25 | 26 |
| --- | --- | --- |
| Bfl-1 A1 inh | -1.0 | 0.9 |
| T cruzi repl | / | -18 |
| Ecoli rRNA inh | 12 | / |
| Ecoli rRNA inh OD600 | 13 | / |
| Ecoli rRNA inh RFP | -2.7 | / |
| Beta2AR agonist | 6 | 2 |
| Beta apoptosis | -6 | -4 |
| ALR H2O2 inh | -12 | / |
| Calb FLC | / | -7 |
| LANA-H2A inh | 5.9 | -4.2 |

Next section.
entry	SMILES	Bfl-1 A1 inh	T cruzi repl	Ecoli rRNA inh	Ecoli rRNA inh OD600	Ecoli rRNA inh RFP	Beta2AR agonist	Beta apoptosis	ALR H2O2 inh	Calb FLC	LANA-H2A inh
41	CC1=C(C#N)S(=O)(=O)C(C#N)C(c2ccccc2)C1 (configuration not stated)	-0.7	0	-7	-9	11	11	-9	52	7	-0.2
42	COc1ccc(-c2nnc(SCC#CCO)o2)cc1OC	-0.5	6	/	/	/	1	-2	3	4	-4.5
43	CCOC(CNC(=O)C1CCN(S(=O)(=O)c2ccc3nc4c(c(C(=O)O)c3c2)CC(C)CC4)CC1)OCC (configuration not stated)	2.1	-10	6	9	5.8	-2	-7	-7	4	5.1
44	CCOC(=O)CSc1nnc(CNC(=O)c2ccc(OC)cc2OC)n1C	2.8	-24	/	/	/	0	-5	-1	?	3.0
45	CCOC(=O)C1(Cc2cccc(F)c2)CCN(CC(O)CO)CC1 (configuration not stated)	-0.3	2	5	1	-2.5	-4	-4	1	-6	-5.6
46	COc1ccc(C)cc1S(=O)(=O)N(CC(=O)N1CCOCC1)Cc1ccccc1	-0.7	1	/	/	/	-5	-2	-4	-8	-4.8
47	Cc1ccc(S(=O)(=O)c2nc(-c3ccccc3Cl)oc2NCCCN2CCOCC2)cc1	-0.3	36	-44	-68	-2.6	-8	-4	/	-28	9.2
48	Cc1ccc(C(=O)NC(=S)Nc2ccc(S(=O)(=O)N(C)c3ccccc3)cc2)cc1	-1.7	/	/	/	/	0	-7	3	-2	3.0
49	CCOc1ccc(N(C(=O)c2cnccn2)C(C(=O)NC2CCCCC2)c2ccc(O)cc2)cc1 (configuration not stated)	0.5	0	8	3	0.5	-10	-2	2	-8	4.0
50	O=C(NCc1ccccn1)c1c(O)c2cccc3c2n(c1=O)CC3	0.8	-1	/	/	/	-12	-7	1	-6	-3.3
51	CCOC(=O)C1CCN(C(=O)C2CCN(S(=O)(=O)c3ccc4ccccc4c3)CC2)CC1	-0.5	-2	0	-18	2.4	-1	6	-1	-3	10
52	CCCn1c(SCC(=O)Nc2cccc(F)c2)nc(O)cc1=O	0.0	/	9	16	1.9	-4	-6	99*	/	1.3
53	Cc1c(CC(=O)NCC(=O)O)c(=O)oc2cc3oc4c(c3cc12)CCCC4	1.5	1	12	12	-0.9	-17	-1	0	2	2.7
54	Cc1ccc(N2CCN(CCCN3C(=O)C4CCCN4C3=O)CC2)cc1 (configuration not stated)	1.5	2	9	6	-7.4	-9	-3	98*	19	5.5
55	O=c1c2sc3nc(N4CCOCC4)c4c(c3c2nnn1Cc1ccccc1)CCCC4	1.1	40	/	/	/	4	0	-6	3	1.5

Source: PubChem
